Bioassay records deposited in PubChem by National Center for Advancing Translational Sciences (NCATS).
D2 potentiator: positive allosteric modulators of human D2 dopamine receptor | hit rate 0.23% among 360,000 | AID 624464 | P14416 | DiscoveRx D2 beta-arrestin cells, luminescence, 90 min; 100% = 57 uM dopamine signal | potentiation, % (no concentration beside the values); active = potentiation of 50% or more; inconclusive = 30% to 50%; inactive = 30% or less;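 further: compound concentration not given in the record; tested on top of an EC20 dose of dopamine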
Target sequence (P14416 whole entry, looked up): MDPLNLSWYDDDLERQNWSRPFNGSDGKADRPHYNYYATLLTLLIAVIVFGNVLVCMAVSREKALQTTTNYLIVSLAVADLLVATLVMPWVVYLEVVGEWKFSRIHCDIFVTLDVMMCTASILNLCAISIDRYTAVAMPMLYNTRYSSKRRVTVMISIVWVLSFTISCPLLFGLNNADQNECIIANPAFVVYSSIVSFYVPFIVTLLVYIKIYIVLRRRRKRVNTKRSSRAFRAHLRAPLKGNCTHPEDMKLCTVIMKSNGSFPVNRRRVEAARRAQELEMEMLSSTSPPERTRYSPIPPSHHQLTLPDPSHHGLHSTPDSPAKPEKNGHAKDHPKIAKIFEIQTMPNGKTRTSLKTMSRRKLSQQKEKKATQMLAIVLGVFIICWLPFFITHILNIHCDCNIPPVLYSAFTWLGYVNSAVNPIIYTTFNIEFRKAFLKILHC
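D2 cells co-treated with compound plus 50 nM dopamine (EC20) for 90 min at 37 deg C to detect potentiation. Beta-arrestin recruitment was read as enzyme-fragment luminescence after 1 h at ambient temperature. Full response was set by 57 uM dopamine.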
PINK1 expr mod: changes PINK1 expression. PINK1 immunofluorescence, high-content cytometry, 24 h. Potency, µM (highest dose often 76.6 µM), inactives show at the highest dose activation (PINK1 increase), actives largely listed as activators. hit rate 0.2% among 410,000; active = well fitted activation curve with a large enough effect; inconclusive = small, poorly fitted or top-dose-only effect; inactive = flat fitted curve, though single readings scatter; cell line not stated here;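 further: potency means the concentration at half of the fitted maximal effect; % of control where 0% means no effect; nearly all actives have a fitted effect of over 65% in size; a mitochondrial uncoupler was the plate control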
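PINK1 protein, normally rapidly degraded, was detected by immunofluorescence after 24 hour compound treatment of a stable cell line. Titration data (5 concentrations) came from laser-scanning cytometry, with CCCP-treated wells as controls.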
TRPML1 inh: blocks the human TRPML1 channel; activity change, negative = inhibition, % (no concentration beside the values); AID 624415; Q9GZU1; TRPML1-inducible cells, Ca2+ dye fluorescence, FDSS; active compounds read low; inhibition of EC80 agonist-evoked calcium signal; hit rate 0.02% among 390,000; in the data active means activity change below about -50%; inconclusive means about -30% to -50%; inactive means above about -30%;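 further: stimulus is agonist 54-4 at its EC80 concentration; on the % scale 0 is the no-effect control and ±100 the full control effect; compound concentration not given in the record; the text of the record puts the active cut at -80%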
Target sequence (Q9GZU1 whole entry, looked up): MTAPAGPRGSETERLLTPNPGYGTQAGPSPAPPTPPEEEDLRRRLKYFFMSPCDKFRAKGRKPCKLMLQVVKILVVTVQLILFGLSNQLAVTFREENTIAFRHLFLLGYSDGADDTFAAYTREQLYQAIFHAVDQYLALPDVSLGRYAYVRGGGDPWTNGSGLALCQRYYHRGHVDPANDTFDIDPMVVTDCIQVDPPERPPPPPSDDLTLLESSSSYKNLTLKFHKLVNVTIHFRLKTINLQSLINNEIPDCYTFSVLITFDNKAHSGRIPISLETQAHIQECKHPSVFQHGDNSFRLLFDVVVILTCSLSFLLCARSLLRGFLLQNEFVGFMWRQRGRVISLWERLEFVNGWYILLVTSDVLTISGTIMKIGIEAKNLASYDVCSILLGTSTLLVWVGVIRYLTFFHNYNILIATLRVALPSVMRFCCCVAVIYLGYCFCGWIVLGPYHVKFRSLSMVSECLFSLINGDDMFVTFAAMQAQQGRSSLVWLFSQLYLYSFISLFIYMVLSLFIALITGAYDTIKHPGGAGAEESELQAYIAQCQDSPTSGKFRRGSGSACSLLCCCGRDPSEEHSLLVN
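Calcium fluorescence in TRPML1-DL cells induced overnight with Tet: a 110 s read after compound pin addition, then a 110 s antagonist read after challenge with 54-4 at 4 uM final (EC80).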
TRPML1 agonist: agonists of human TRPML1 channel. Q9GZU1. TRPML1-expressing cells, Ca2+ dye fluorescence, FDSS; host cell line not named in the record; reference of the full effect not given here. activation, % (concentration not given with the values). hit rate 0.12% among 410,000. AID 624414; in the data active = activation above about 50%; inconclusive = about 30% to 50%; inactive = below about 30%; further: 0% is about no effect; the text of the record puts the active cut at 80%
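Agonist activity was taken from a 110 s kinetic Ca2+ dye read on the FDSS after pinning compounds onto TRPML1-DL cells. The cells were seeded at 1,500/well with Tet inducer, incubated about 16 h, then dye-loaded at room temperature.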
Six1-Eya2 blk: blocks human Six1 binding to Eya2. activity change, % (concentration not given with the values). AID 651725. hit rate 0.56% among 360,000. AlphaScreen GST-Six1/His-Eya2 binding, biochemical; active compounds read low; control for the full effect not named in the record; in the data active = activity change below about -65%; inconclusive = about -30% to -65%; inactive = above about -30%; further: on the % scale 0 is the no-effect control and ±100 the full control effect
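GST-Six1 + His-Eya2 (5X stock: 250/500 nM); Tris pH 8.0, 300 mM NaCl, 0.05% BSA, 0.02% Tween 20; GSH donor/Ni acceptor beads; 1 h 37 °C dark; AlphaScreen readout.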
D2 ag: human D2 receptor agonism in beta-arrestin assay; P14416; activation, % (concentration not given with the values); DiscoveRx PathHunter D2 beta-arrestin, luminescence, 90 min; 100% = 57 uM dopamine signal; hit rate 0.084% among 360,000; AID 624465; in the data active = activation above about 40%; inconclusive = about 15% to 40%; inactive = below about 15%; further: compound concentration not given in the record; the text of the record calls up to 30% inactive
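Agonist mode: compounds alone added to overnight-plated D2 PathHunter cells for 90 min at 37 C, with 57 uM final dopamine (EC100) defining full response. Beta-arrestin recruitment detected by chemiluminescent reagent, read after 1 h at ambient temperature.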
Numbers without * were called inactive; u = inconclusive; x = no result given; [ ] = another dose, or the depositor's remark. Random draw from the library; about 1% have a hit in one of these screens.

molecule	D2 potentiator	PINK1 expr mod	TRPML1 inh	TRPML1 agonist	Six1-Eya2 blk	D2 ag
CCC1(C)NC(=O)N(/N=C/c2ccc(C)s2)C1=O (stereo unspecified)	0	0.8%	15	2.2	7	6.9
Brc1ccccc1-c1csnn1	-10	0.9%	-9	-0.5	-12	-0.8
COC(=O)CNC(c1ccccc1)c1cc(Br)ccc1NS(=O)(=O)c1ccccc1 (stereo unspecified)	-8	0.6%	-18	-0.5	3	-4.9
COc1cc(C(=O)N/N=C/c2ccc3c(c2)c2ccccc2n3C)ccc1O	0	1.9%	34	-0.1	u	-0.1
CCC(C)(C)NC(=O)C(c1ccccc1Cl)N(Cc1cccnc1)C(=O)CCC(=O)Nc1cc(C)on1 (stereo unspecified)	-10	2.2%	-8	-1.4	-14	-1.0
CC(=O)Nc1ccc(SCCCC(=O)c2ccccc2)cc1	-3	2.8%	-8	0.2	-2	-3.7
COc1ccc(NC(=O)N2CCC(n3cnc4ccccc43)CC2)cc1	-1	-0.7%	1	1.2	0	-1.7
CCCc1cc(C(=O)OC)c(NC(=O)CCC(=O)O)s1	-1	1.2%	-2	1.4	9	-4.1
COc1ccccc1CNC(=O)Cn1c(=O)oc2ccccc21	x	-2.7%	-9	-0.8	x	x
CC(C)OCCCNS(=O)(=O)c1ccc2c(c1)oc(=O)n2C	-6	1.7%	8	0.0	3	0.1
COc1cccc(CN2c3ccccc3-c3nc(SCC(=O)Nc4cccc(C)c4)ncc3S2(=O)=O)c1	x	0.8%	36	2.2	x	x
COCCN(C(=O)CSc1cc(C)c2ccccc2n1)c1c(N)n(CC(C)C)c(=O)[nH]c1=O	-18	7.8%	5	0.5	0	-2.8
CC(C(=O)NCC1CCCCC1)N(C)Cc1ccc(Br)cc1 (stereo unspecified)	-12	6.1%	2	-0.4	13	-1.4
ClC1(Cl)CC1CSc1ncn[nH]1 (stereo unspecified)	11	3.1%	-16	-0.3	2	1.0
CC(C)Cn1c(SCC(=O)N2CCN(S(=O)(=O)c3ccccc3)CC2)nc2ccccc21	-6	x	-10	2.2	11	-3.8
CN(Cc1ccc(F)cc1)C(=O)c1cccc(S(=O)(=O)N2CCN(c3ccccc3)CC2)c1	-16	3.9%	0	-1.0	-8	-0.5
CCC(C(=O)N1CCOCC1)n1c(C(=O)OC)cc2occc21 (stereo unspecified)	0	-4.9%[38.3 µM]	6	0.2	3	0.6
Cc1ccc(S(=O)(=O)NCCN2CCNC2=O)cc1	-17	2.1%	1	-0.2	6	-3.9
CC(C)(C)N(Cc1ccccc1)C(=O)COC(=O)c1cccc([N+](=O)[O-])c1	-2	1.7%	-17	-0.3	-14	1.0
Cc1ccc(NC(=O)C2CCCN2S(=O)(=O)c2ccc(-c3ccc(=O)[nH]n3)s2)c(C)c1 (stereo unspecified)	-14	-0.3%	18	0.9	-3	4.9
COc1cc(C(=O)O)nc2ccc([N+](=O)[O-])cc12	-1	3.3%	-5	-0.3	-16	3.6
COc1ccccc1NC(=O)CCCC(=O)OC(C)C(=O)c1ccccc1 (stereo unspecified)	2	0.7%	-4	-0.1	3	-1.0
CC1CCN(c2ccc(-c3nc(C(C)C)no3)cc2[N+](=O)[O-])CC1	x	2.7%	61	-0.3	x	x
CCOc1cc(C2CC(=O)Nc3nc(SCc4ccccc4)[nH]c(=O)c32)ccc1O (stereo unspecified)	x	-0.5%	-9	3.8	x	x
CN(c1ccc(OCC(=O)OCC(=O)Nc2ccc([N+](=O)[O-])cc2)cc1)S(=O)(=O)c1cccs1	2	1.5%	16	0.8	-1	1.6
O=C(CCc1nc2ccccc2c(=O)[nH]1)N1CCN(S(=O)(=O)c2ccccc2Br)CC1	-5	1.7%	36	1.2	-14	-4.6
CNc1c([N+](=O)[O-])cnn1-c1ccc(F)cc1	-5	-0.6%	-2	-0.4	8	-16
O=C(CNC(=O)c1ccco1)OCc1ccc(Cl)cc1	2	-1.4%	9	4.0	0	-1.8
Nc1nnnn1/N=C/c1cccc(Br)c1	-7	-1.3%	x	x	-2	-2.8
COC(=O)c1cc(COC(=O)CNC(=O)c2cccc(C)c2)oc1C	-4	-1.1%	-3	0.1	0	-5.2

Structures from the list above that contain a COOH group, in the order listed:
molecule	D2 potentiator	PINK1 expr mod	TRPML1 inh	TRPML1 agonist	Six1-Eya2 blk	D2 ag
CCCc1cc(C(=O)OC)c(NC(=O)CCC(=O)O)s1	-1	1.2%	-2	1.4	9	-4.1
COc1cc(C(=O)O)nc2ccc([N+](=O)[O-])cc12	-1	3.3%	-5	-0.3	-16	3.6

Other records.
molecule	D2 potentiator	PINK1 expr mod	TRPML1 inh	TRPML1 agonist	Six1-Eya2 blk	D2 ag
COc1ccc(-c2nc3ccccc3s2)cc1NC(=O)c1cc(OC)c(OC)c(OC)c1	x	0.2%	7	-0.8	x	x
C=CCn1c(NCc2ccc(OC)cc2O)nc2ccccc21	-4	0.0%	-5	0.4	0	-2.0
O=C(COC(=O)COc1ccccc1F)Nc1cccc(S(=O)(=O)N2CCCCC2)c1	-15	3.1%	14	2.0	-8	-2.3
O=C(CCNC(=O)c1ccc(Br)cc1)Nc1ccccc1N1CCCCC1	-1	3.1%	-4	1.1	-1	2.5
CC(C)Oc1ccc(/C(O)=C2/C(=O)C(=O)N(Cc3cccnc3)C2c2ccco2)cc1 (stereo unspecified)	-15	-1.7%	-14	2.7	3	-5.7
CC(C)(C)N1CC(C(=O)Nc2cccc(Cl)c2Cl)CC1=O (stereo unspecified)	-8	-0.6%	-19	-0.4	34	5.9
COc1ccc(OC)c(C(=O)CSc2nnc(-c3cccs3)o2)c1	12	x	16	1.6	-16	2.9
COc1ccc(CSCCN)cc1Cl	-13	-1.7%[38.3 µM]	43	1.0	-6	-3.0
COc1ccc(S(=O)(=O)N(C)CC(=O)N2CCC(C)CC2)cc1Cl	-3	-7.5%[38.3 µM]	5	-0.2	0	-2.1
O[C@@H]1CN(Cc2ccc(-n3cccn3)cc2)CC[C@H]1N1CCN(c2ccccc2F)CC1	-1	0.2%	-9	0.1	0	7.6
O=C(COC(=O)/C=C/c1ccc(S(=O)(=O)N2CCOCC2)cc1)Nc1ccccc1F	0	-2.4%	-6	-0.4	-6	1.7
CN(C)c1ccc(CNC(=O)/C=C/[C@H]2O[C@@H](n3ccc(=O)[nH]c3=O)[C@H](O)[C@@H]2O)cc1	-3	0.0%	-5	-0.5	1	-2.7
COCCCn1c(CCC(=O)O)ccc1-c1cccs1	-5	-2.3%	12	0.4	5	-3.5
O=C(CSc1nc(CCC2CCCC2)nc2ccccc12)NCc1ccc2c(c1)OCO2	-9	2.3%	-7	1.2	10	1.6
Cn1c(=O)c2c(nc(CN3CCN(c4ccccc4)CC3)n2Cc2c(F)cccc2Cl)n(C)c1=O	-4	-0.2%	-1	0.3	-2	-0.2

Some of these compounds in order of their number in D2 potentiator, smallest number first.
mol	D2 potentiator	TRPML1 inh	Six1-Eya2 blk	D2 ag
COc1ccc(CSCCN)cc1Cl	-13	43	-6	-3.0
O=C(CSc1nc(CCC2CCCC2)nc2ccccc12)NCc1ccc2c(c1)OCO2	-9	-7	10	1.6
Cn1c(=O)c2c(nc(CN3CCN(c4ccccc4)CC3)n2Cc2c(F)cccc2Cl)n(C)c1=O	-4	-1	-2	-0.2
CN(C)c1ccc(CNC(=O)/C=C/[C@H]2O[C@@H](n3ccc(=O)[nH]c3=O)[C@H](O)[C@@H]2O)cc1	-3	-5	1	-2.7
O=C(CCNC(=O)c1ccc(Br)cc1)Nc1ccccc1N1CCCCC1	-1	-4	-1	2.5

Other structures follow.
molecule	D2 potentiator	PINK1 expr mod	TRPML1 inh	TRPML1 agonist	Six1-Eya2 blk	D2 ag
CCn1c(=O)sc2cc(NC(=O)c3cccc(OC)c3)ccc21	x	1.4%	-7	-1.6	x	x
CCCCN(CCCC)CCCNC(=O)c1ccc2nc(N3CCCCC3)sc2c1	x	-0.6%	-6	-0.4	x	x
CCOC(=O)c1ccc(COC(=O)CCc2nc(-c3ccccc3)c(-c3ccccc3)o2)cc1	3	8.3%[38.3 µM]	-3	4.9	13	-1.5
Cc1ccc(-c2noc(CCC(=O)Nc3cccc(C(=O)NC4CC4)c3)n2)cc1	0	1.8%	1	-0.7	-6	-1.4
O=C(NCc1ccccc1)[C@@H]1CSC2c3ccccc3C(=O)N21 (stereo partly specified)	-11	0.8%[38.3 µM]	-6	0.2	-2	-2.7
COc1ccc(C(=O)CC(=O)c2ccc(OC)cc2)cc1	-12	4.2%	17	1.6	-8	4.8
Cc1ccc(-n2nnnc2SCC(=O)N2CCCCC2)cc1	-11	-1.7%[38.3 µM]	1	-0.8	0	-2.3
C=CCn1c(SCC(=O)N(C)C)nc2cc(C(=O)O)ccc2c1=O	-3	-0.3%	1	-0.4	1	-4.1
CCn1c2ccccc2c2cc(NC(=O)C(=O)NCC3CCCO3)ccc21 (stereo unspecified)	-14	1.2%	-13	-0.4	-4	-6.8
Cc1cccc(C(=O)N2CCNC(=O)C2CC(=O)Nc2ccc(F)cc2)c1 (stereo unspecified)	x	0.8%	20	0.3	x	x
CCOC(=O)C1=C(CC)Nc2ccccc2N=C1NC(=O)c1cccc(S(=O)(=O)N2CCCC2)c1	-3	2.2%	-5	-0.1	-1	-3.0
CCCCOc1ccc(NC(=O)CN2CCN(Cc3ccccc3)CC2)cc1	-5	4.0%	5	0.8	-6	-4.6
Cc1ccc(S(=O)(=O)Nc2cc3c(cc2N2CCOCC2)n(C)c(=O)n3C)c(C)c1	x	-0.8%	17	0.0	x	x
Cc1c(C(=O)Nc2cccc(Cl)c2)c2ccccn2c1CCc1ccncc1	-8	1.3%	87	0.5	-5	0.7
O=C(Cn1c(SCCOc2ccccc2Cl)nc2ccccc21)N1CCCCC1	x	0.4%	16	2.4	x	x
CCC(=O)Nc1cc2nn(-c3ccccc3)nc2cc1Cl	-1	6.5%	12	1.2	5	-0.4
COCCNC(=O)C1(C)CCCN(Cc2ccc(Oc3ccccc3)cc2)C1 (stereo unspecified)	-3	-0.9%	x	-0.8	3	3.4
C=CCCN([C@@H](C)C(=O)OC)S(=O)(=O)c1ccccc1Br	-1	-0.3%	14	-0.9	9	2.6
Cc1ccc(N=Cc2ccccc2O)cc1Cl	13	0.3%	4	1.0	-2	-0.8
O=c1[nH]c(/C(Cl)=C/c2cccc(F)c2)nc2cc(C(F)(F)F)ccc12	6	5.2%	-14	0.0	-2	3.1
CN1CCC(Oc2ccc(Sc3ccccc3)cc2)CC1	-36	-1.6%	-3	-0.2	-11	-11
CN1CCC(OC(=O)c2ccc(Br)cc2)CC1	-8	-1.1%	-12	-0.1	1	-1.5

Part of the list above, reformatted.
Every second line gives: D2 potentiator	PINK1 expr mod	TRPML1 inh	TRPML1 agonist	Six1-Eya2 blk	D2 ag
- ClC1(Cl)CC1CSc1ncn[nH]1 (stereo unspecified)
 : 11	3.1%	-16	-0.3	2	1.0
- O=C(NCc1ccccc1)[C@@H]1CSC2c3ccccc3C(=O)N21 (stereo partly specified)
 : -11	0.8%[38.3 µM]	-6	0.2	-2	-2.7
